High-throughput results as filed in PubChem.
VDR inhibitor: Inhibitors of the vitamin D receptor (VDR): qHTS. Vitamin D3 receptor (Homo sapiens), P11473. VDR-SRC2-3 peptide fluorescence polarization, 2 h. Potency, µM, for the others: max response, negative = inhibition, usual class: inhibitors. 0.93% of 400,000 active. AID 504847, 2011; active = well fitted inhibition curve with a large enough effect; inconclusive = small, poorly fitted or top-dose-only effect, or another doubt; inactive = no such curve, though single readings can be large or run the other way; also: series mostly up to about 120 µM
Target sequence (P11473 whole entry, looked up): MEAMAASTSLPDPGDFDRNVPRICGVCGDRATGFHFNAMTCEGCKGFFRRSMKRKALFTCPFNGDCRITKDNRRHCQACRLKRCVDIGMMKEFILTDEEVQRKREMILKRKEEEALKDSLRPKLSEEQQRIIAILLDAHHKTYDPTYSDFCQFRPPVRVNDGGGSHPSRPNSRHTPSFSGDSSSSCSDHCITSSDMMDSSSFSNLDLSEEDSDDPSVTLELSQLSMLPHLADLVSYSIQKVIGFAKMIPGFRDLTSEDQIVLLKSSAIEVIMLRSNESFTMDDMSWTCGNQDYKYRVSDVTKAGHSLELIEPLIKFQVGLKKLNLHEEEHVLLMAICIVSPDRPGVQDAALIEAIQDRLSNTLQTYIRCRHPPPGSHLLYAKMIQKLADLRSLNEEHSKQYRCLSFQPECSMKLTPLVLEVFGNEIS
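Compounds are added to VDR with labelled SRC2-3 coactivator peptide and held 2 h at room temperature. Inhibition of the VDR–peptide interaction is then read as a change in fluorescence polarization.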
The depositor's hits bear a star; & = joins results of further samples. % is scaled to controls: 0 for no effect and ±100 for the full control effect; potency is read from the fitted curve at half-maximal effect.

Screening Cc1cc(O)ccc1NC(=S)NC(=O)c1cncc(Br)c1 returned VDR inhibitor -21%.
For COCCN(Cc1cc2cc(C)ccc2nc1Cl)C(=O)Nc1ccccc1C the results were VDR inhibitor -3%.
`CCOc1ccccc1NC(=O)Cn1c(=O)n(-c2ccccc2)c(=O)c2oc3ccccc3c21` gave VDR inhibitor -14%.
Screening CCOC(=O)C1=CN(CC)S(=O)(=O)NC1c1ccc2ccccc2c1 (stereo unspecified) returned VDR inhibitor 15%.
Screening COC(=O)c1ccc(CSC2=NC[C@@H]3[C@@H]4C(=O)N(C)C(=O)[C@@H]4[C@](Cc4ccccc4)(C(=O)OC)N23)cc1 returned VDR inhibitor 8%.
`CS(=O)(=O)N(CC(=O)N/N=C/c1ccco1)c1ccccc1Br` gave VDR inhibitor 2%.
CCc1nn(C(C)C(=O)NCCN2CCCCCC2)c(=O)c2cc3occc3n12 (stereo unspecified) was read as VDR inhibitor -14%.
Screening Cc1ccc(N2C(=O)CC(N(CCc3ccccc3)C(=S)Nc3ccc(N(C)C)cc3)C2=O)cc1 (stereo unspecified) returned VDR inhibitor 6%.
For COC(=O)CC1c2ccccc2S(=O)(=O)N1Cc1ccccc1 (stereo unspecified) the results were VDR inhibitor -8%&-9%.
For CCCc1cc(C(=O)NCc2ccccc2)no1 the results were VDR inhibitor -15%.
`O=C(NCCC1=CCCCC1)c1ccc2c(=O)n3nc(Nc4ccccc4)sc3nc2c1` gave VDR inhibitor 14%.
Cc1ccsc1/C=N/NC(=O)CNC(=O)c1cccc([N+](=O)[O-])c1C was read as VDR inhibitor -14%.
Screening CC(C)CCNCC(O)CON=C1c2ccccc2-c2ccccc21 (stereo unspecified) returned VDR inhibitor 8%.
For Cc1cc(N2CCOCC2)nc2cc(O)ccc12 the results were VDR inhibitor -2%.
Screening Cc1c(Cl)cccc1NC(=O)Cn1cccc1 returned VDR inhibitor 5%.
CCc1ccc(NS(=O)(=O)c2ccc3[nH]c(=O)[nH]c3c2)cc1 was read as VDR inhibitor 0%.
Screening C=CCn1c(-c2ccc(N)cc2)nc2ccccc21 returned VDR inhibitor -28%.
CC(OC(=O)c1cc(=O)c2cc(Cl)ccc2o1)C(=O)N1CCCC1 (stereo unspecified) was read as VDR inhibitor -4%.
Screening CCOc1ccccc1CN(CCc1ccc2c(c1)OCO2)Cc1cc(OC)c(OC)cc1OC returned VDR inhibitor -12%.
For O=C(CCCN1C(=O)c2cccnc2C1=O)N1CC(=O)N(CCc2ccccc2)C(=O)C1 the results were VDR inhibitor 15%.

Continued; it opens with the 7 that closed the last part.
For Cc1cc(N2CCOCC2)nc2cc(O)ccc12 the results were VDR inhibitor -2%.
Screening Cc1c(Cl)cccc1NC(=O)Cn1cccc1 returned VDR inhibitor 5%.
CCc1ccc(NS(=O)(=O)c2ccc3[nH]c(=O)[nH]c3c2)cc1 was read as VDR inhibitor 0%.
Screening C=CCn1c(-c2ccc(N)cc2)nc2ccccc21 returned VDR inhibitor -28%.
CC(OC(=O)c1cc(=O)c2cc(Cl)ccc2o1)C(=O)N1CCCC1 (stereo unspecified) was read as VDR inhibitor -4%.
Screening CCOc1ccccc1CN(CCc1ccc2c(c1)OCO2)Cc1cc(OC)c(OC)cc1OC returned VDR inhibitor -12%.
For O=C(CCCN1C(=O)c2cccnc2C1=O)N1CC(=O)N(CCc2ccccc2)C(=O)C1 the results were VDR inhibitor 15%.
For CN1C[C@@H]2C(c3ccc(Cl)nc3)C3(c4cccnc4)CC2(C3)[C@H]1c1ccccc1 (stereo partly specified) the results were VDR inhibitor -4%.
For CCOc1ccccc1NC(=O)C1CCN(C(=O)C2CC(=O)N(c3ccc(C)cc3)C2)CC1 (stereo unspecified) the results were VDR inhibitor -3%.
For Cc1c(N(C(=O)Cc2cccs2)C2(C(=O)NC3CCCC3)CCCCC2)c(=O)n(-c2ccccc2)n1C the results were VDR inhibitor 5%.
For Oc1ccc(C2C(c3ccccc3)=NN=C(c3ccc(Cl)cc3)N2O)c(O)c1 (stereo unspecified) the results were VDR inhibitor -19%.
O=C(Nc1ccc(O)c(-c2nc3ccccc3o2)c1)C1(c2ccc(Br)cc2)CCCC1 was read as VDR inhibitor inconclusive.
Screening CNC(=O)CCn1nc(-c2ccccc2)c2ccccc2c1=O returned VDR inhibitor 3%.
`Cc1ccc(NC(=O)CN(C)C(=O)CSc2nncn2C)cc1` gave VDR inhibitor 9%.
`CC(=O)OCC(=O)NCC(=O)c1c[nH]c2ccccc12` gave VDR inhibitor 3%.
For CC(=O)NC(Cc1ccc(F)c(F)c1)C(=O)NC1CCN(c2nnnn2-c2ccccc2)CC1 (stereo unspecified) the results were VDR inhibitor -4%.
C=CC(O)(C#CCN(CC)CC)c1ccccc1 (stereo unspecified) was read as VDR inhibitor 5%.
O=C(NCC1CCCO1)c1cccc(C(=O)NCC2CCCO2)c1 (stereo unspecified) was read as VDR inhibitor 2%.
`Cn1cc(CN(C(=O)Nc2ccc(Cl)c(Cl)c2)C2CCCCC2)c2ccccc21` gave VDR inhibitor -9%.
Screening CC(C)CNC(=O)CSc1nc2nn(-c3ccccc3)c(=O)c-2c2n1CCCCC2 returned VDR inhibitor 6%.
For C=CCC1NS(=O)(=O)OC(COC)C1C (stereo unspecified) the results were VDR inhibitor -14%.
Cc1cc2c(c(SCC(=O)NCCc3ccccc3)n1)C(=O)OC2 was read as VDR inhibitor 3%.
COc1cc(C(CC(=O)Nc2ccc(Cl)cn2)N2Cc3ccccc3C2=O)cc(OC)c1OC (stereo unspecified) was read as VDR inhibitor -8%.
For O=C(O)c1ccccc1C(=O)c1ccc2c(c1)CCC2 the results were VDR inhibitor 1%.
Screening O=c1ccc(-c2n[nH]c(=S)n2-c2ccc(F)c(Cl)c2)n[nH]1 returned VDR inhibitor 6%.
CC1(C)C2CCC1(CS(=O)(=O)NCc1ccc(S(N)(=O)=O)cc1)C(=O)C2 (stereo unspecified) was read as VDR inhibitor -7%.
`CC(C)(C)c1ccc(C(=O)NC2(C(F)(F)F)NC(=O)N(CCc3ccccc3)C2=O)cc1` (stereo unspecified) gave VDR inhibitor -23%.
CCCCn1c(N)c(N(CCC(C)C)C(=O)c2ccccc2C)c(=O)[nH]c1=O was read as VDR inhibitor -11%.
`O=C(CSc1nnc(Nc2ccccc2F)s1)NCc1ccco1` gave VDR inhibitor 2%.
`Cc1cccc(C(=O)c2ccccc2C(=O)O)c1` gave VDR inhibitor -3%.
CCCc1cc(=O)oc2cc(OC(C)C(=O)NCCCn3ccnc3)ccc12 (stereo unspecified) was read as VDR inhibitor 2%.
Screening O=C(CSc1nnc(NC(=O)Cc2ccccc2)s1)NCc1ccco1 returned VDR inhibitor 0%.
For CCCCN(CCCNC(=O)c1ccc(CS(=O)(=O)c2c(Cl)cccc2Cl)o1)Cc1ccccc1 the results were VDR inhibitor -6%.
Screening Cc1cc(C(=O)N2CC(C)CC(C)C2)n(-c2ccccc2)n1 (stereo unspecified) returned VDR inhibitor -8%.
CCc1ccc(CCC(=O)Nc2sc3c(c2C#N)CCCC3)o1 was read as VDR inhibitor -12%.
O=C(N/N=C/c1ccc(F)cc1)c1cccc(NC(=O)c2ccccc2Cl)c1 was read as VDR inhibitor 4%.
For Cc1[nH]c2ccccc2c1/C=N/NC(=O)CNC(=O)c1ccccc1 the results were VDR inhibitor -5%.
Screening CCCCN1C(N)=NC[C@H]1Cc1ccc(O)cc1 returned VDR inhibitor 9%.
Screening Cc1ccc(NC(=O)C2CCN(S(=O)(=O)c3cccnc3)CC2)cc1C returned VDR inhibitor 12%.
For O=C(OCC(=O)N1CCOCC1)c1cc(S(=O)(=O)N2CCOCC2)c(Cl)cc1Cl the results were VDR inhibitor 7%.
For O=C(Nc1cc(Cl)ccc1N1CCOCC1)C1=COCCO1 the results were VDR inhibitor 1%.
Screening CC1CCCCC1NC(=O)CN1CCC(NC(=O)c2cccc(F)c2)CC1 (stereo unspecified) returned VDR inhibitor -21%.
Cc1ccc(NC(=O)CCc2nc3cccnc3n2-c2ccccc2)cc1Cl was read as VDR inhibitor -7%.
COc1cc(C(=O)Nc2cccc(-c3nc4cc(C)ccc4o3)c2C)cc(OC)c1OC was read as VDR inhibitor -11%.
`O=Nc1[nH]c(=O)c(/C=C(\O)c2ccccc2)nc1NO` gave VDR inhibitor 10%.
COc1ccc(NC(=O)/C=C/c2ccc(F)cc2)cn1 was read as VDR inhibitor -9%.
`CCOc1ccc(C(=O)Nc2ccc3c(c2)OCCO3)cc1` gave VDR inhibitor -2%.

The last 6 compounds of the section before come first, to join the parts:
Screening CC1CCCCC1NC(=O)CN1CCC(NC(=O)c2cccc(F)c2)CC1 (stereo unspecified) returned VDR inhibitor -21%.
Cc1ccc(NC(=O)CCc2nc3cccnc3n2-c2ccccc2)cc1Cl was read as VDR inhibitor -7%.
COc1cc(C(=O)Nc2cccc(-c3nc4cc(C)ccc4o3)c2C)cc(OC)c1OC was read as VDR inhibitor -11%.
`O=Nc1[nH]c(=O)c(/C=C(\O)c2ccccc2)nc1NO` gave VDR inhibitor 10%.
COc1ccc(NC(=O)/C=C/c2ccc(F)cc2)cn1 was read as VDR inhibitor -9%.
`CCOc1ccc(C(=O)Nc2ccc3c(c2)OCCO3)cc1` gave VDR inhibitor -2%.
For C=CC[C@H](CC(=O)N(CCO)Cc1ccccc1)C(=O)NCCOC(=O)[C@H](CC=C)CC(=O)OC(C)(C)C the results were VDR inhibitor -10%.
Screening Cc1ccc(S(C)(=O)=N/C=C2\C(=O)c3sccc3N(C)S2(=O)=O)cc1 (stereo unspecified) returned VDR inhibitor -9%.
Nc1nonc1-c1nc2ccccc2n1CC(=O)O was read as VDR inhibitor -9%.
O=C(Cc1ccccc1F)NCC(c1ccco1)N1CCCCC1 (stereo unspecified) was read as VDR inhibitor -3%.
C/C=C/C=C/C(=O)N1CC2(CC(c3cccc(NC(=O)/C=C/C)c3)=NO2)C[C@@H]1C(N)=O (stereo partly specified) was read as VDR inhibitor -11%.
C[C@]12CC[C@@H](O)C[C@@H]1CC[C@@H]1[C@@H]2CC[C@]2(C)C=CC[C@@H]12 was read as VDR inhibitor -14%.
`COc1ccc(C2NC(=O)N(C)C3=C2C(=O)CC(C)(C)C3)cc1OC` (stereo unspecified) gave VDR inhibitor -8%.
For CCOCCCNS(=O)(=O)c1ccc2c(c1)CCN2C(C)=O the results were VDR inhibitor -7%.
`Cn1cccc1/C=C1\SC(=S)N(NC(=O)c2cccc(Cl)c2)C1=O` gave VDR inhibitor -19%.
Screening O=C(NC(=S)Nc1ccccn1)c1ccccc1 returned VDR inhibitor -2%.
`CCCN(C(=O)CSCc1c(C)noc1C)c1c(N)n(Cc2ccccc2)c(=O)[nH]c1=O` gave VDR inhibitor -2%.
Screening Oc1ccc(Cl)cc1CNCc1ccc(Cl)cc1 returned VDR inhibitor 0%.
`CCN1C(=NCC2CC2)N[C@@H](c2cccc(C(F)(F)F)c2)C(C(=O)OC)=C1C` gave VDR inhibitor 7%.
For O=C(CN1C(=O)NC2(CCCCCCC2)C1=O)Nc1cccc(Br)c1 the results were VDR inhibitor -3%.
Screening Cc1cccc(NC(=O)c2ccc(C)c(S(=O)(=O)N3CCCCC3)c2)n1 returned VDR inhibitor -4%.
For COc1ccc(-c2ccc3oc(-c4ccc(OC)cc4)c(C#CCO)c3c2)cc1 the results were VDR inhibitor -23%.
Screening Cc1c(Cl)cccc1NS(=O)(=O)c1cccc2nsnc12 returned VDR inhibitor -19%.
CSc1nc(-c2ccccc2)nn1S(=O)(=O)c1ccc(Cl)cc1 was read as VDR inhibitor -15%.
Nn1c(SCC(=O)Nc2nccs2)nnc1-c1ccco1 was read as VDR inhibitor -25%.
Screening O=C(CCc1ccc(S(=O)(=O)N2CCOCC2)cc1)OCC(=O)c1ccc(Br)cc1 returned VDR inhibitor -3%.
`COc1ccc(NC(=O)C(=O)NCCCn2ccnc2)cc1` gave VDR inhibitor -5%.
For CCN(CC(=O)Nc1c(F)cccc1F)C(=O)c1csc2c1CCCC2 the results were VDR inhibitor -9%.
Cc1cc(C(F)(F)F)c2c(N)c(C(=O)NC3CC3)sc2n1 was read as VDR inhibitor -3%.
`NC(=O)c1c(NC(=O)c2ccccc2)sc2c1CCCC2` gave VDR inhibitor -20%.
For CSCCC(NC(=O)c1ccc([N+](=O)[O-])cc1Cl)C(=O)OC1CCCCC1=O (stereo unspecified) the results were VDR inhibitor -14%.
For CCOC(=O)/C(N)=C/c1ncc(C(F)(F)F)cc1Cl the results were VDR inhibitor -6%.
For COc1cccc(C(=O)NC2CCN(CC(=O)Nc3ccccc3Cl)CC2)c1 the results were VDR inhibitor -6%.
Screening CS(=O)(=O)c1ccc2nc(NC(=O)C3=NN(c4ccccc4)C(=O)CC3)sc2c1 returned VDR inhibitor -8%.
Cc1ccc2c(CNCc3ccc(C)o3)c(C(=O)O)n(Cc3ccccc3C)c2c1 was read as VDR inhibitor -8%.
`COCCn1c(SCc2cc(C(C)=O)ccc2OC)nc2cc(Cl)ccc2c1=O` gave VDR inhibitor -9%.
For Cc1oc(-c2ccc(Cl)cc2)nc1CS(=O)CC(=O)NCCN1CCCCCC1 (stereo unspecified) the results were VDR inhibitor 12%.
Screening COc1ccc(NC(=O)Nc2cccc3c2O[C@H](CN(C)C(=O)NC(C)C)[C@@H](C)CN([C@H](C)CO)C3=O)cc1 returned VDR inhibitor 0%.
For CC(=O)N1CCc2cc(S(=O)(=O)N3CCc4ccccc4C3)ccc21 the results were VDR inhibitor 5%.
For Cc1cc(O)c(C(=O)/C=C/c2ccccc2)c(=O)o1 the results were VDR inhibitor inconclusive.
Screening COc1ccc(OC)c(-n2c(-c3ccn[nH]3)n[nH]c2=S)c1 returned VDR inhibitor -3%.
Screening CCCS(=O)(=O)N1CCC(C(=O)N2CCN(Cc3ccccc3)CC2)CC1 returned VDR inhibitor -2%.
`COc1ccc(-n2cnnc2SCC(=O)Nc2cccc(S(=O)(=O)N3CCCCC3)c2)cc1` gave VDR inhibitor 4%.
`COc1ccc2c(C)cc(SC3CCOC3=O)nc2c1` (stereo unspecified) gave VDR inhibitor -28%.

Only part of the results is shown (hit frequency here may not be typical).
